Cruzain inh noDet: inhibitors of Trypanosoma cruzi cruzain without detergent. AID 1476. purified cruzain, Z-FR-AMC fluorescence, no detergent. P25779. Potency, µM, for inactives: max response, negative = inhibition, most hits filed as inhibitors. 2.3% of 200,000 active;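 also: plate controls were enzyme without inhibitor for no effect and buffer without enzyme for full effect; nearly all actives have a fitted effect of over 40% in size; top concentration of the series not given in the record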
Target sequence (P25779 123-467 limits assumed): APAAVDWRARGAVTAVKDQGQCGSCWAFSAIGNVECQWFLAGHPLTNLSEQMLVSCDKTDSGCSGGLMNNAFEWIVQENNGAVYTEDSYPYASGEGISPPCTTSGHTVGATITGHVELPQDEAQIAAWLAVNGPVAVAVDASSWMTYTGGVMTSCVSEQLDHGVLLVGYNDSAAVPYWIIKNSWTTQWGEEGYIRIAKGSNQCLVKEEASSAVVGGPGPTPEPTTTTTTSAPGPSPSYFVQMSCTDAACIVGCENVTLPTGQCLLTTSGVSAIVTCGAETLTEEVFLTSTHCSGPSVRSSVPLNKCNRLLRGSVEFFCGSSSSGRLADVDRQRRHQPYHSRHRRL
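Detergent-free condition (0.00005% Triton X-100) in acetate buffer pH 5.5 with DTT. 1.5 nM enzyme and compound were pre-mixed 15 min, then 2 uM Z-FR-AMC substrate added; reaction progress from fluorescence change between first and third reads (60 s).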
RE007 growth inh: less growth of the S. pombe RE007 Vpr strain. S. pombe RE007 Vpr strain, BacTiter-Glo ATP luminescence, 24 h; control for the full effect not named in the record. Potency, µM (series often up to 92.2 µM), for inactives: at the highest dose activity change, negative = less growth. 0.21% of 360,000 active. AID 651644; active = well fitted falling curve with a large enough effect; inconclusive = small, poorly fitted or top-dose-only effect; inactive = no such curve, though single readings can be large or run the other way;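 also: % is scaled to controls: 0 for no effect and ±100 for the full control effect; nearly all actives have a fitted effect of over 50% in size; the assay follows cell death caused by Vpr and the record does not say whether a fall means rescue or toxicity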
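Fission yeast strain RE007, carrying one chromosomally integrated HIV-1 vpr copy, was seeded at OD 0.01 in PMG+AL medium with 23 nL pinned compound. After 24 h at 30 °C and 99% humidity, viability was read by BacTiter-Glo luminescence.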
SARS PLP yeast: blocks SARS-CoV papain-like protease in a yeast assay; S. cerevisiae expressing SARS-CoV PLpro, growth rescue; control for the full effect not named in the record; Potency, µM (doses to about 32.9 µM), inactives show at the highest dose activity, positive = growth rescue; 0.19% of 330,000 active; active means well fitted rising curve with a large enough effect; inconclusive means small, poorly fitted or top-dose-only effect; inactive means no such curve, though single readings can be large or run the other way; also: 0% is about no effect; nearly all actives have a fitted effect of over 55% in size; growth read by luminescence after 48 h
Marburg entry inh: Marburg virus entry inhibition; Marburg virus pseudotyped entry inhibition, cell reporter; control for the full effect not named in the record; about a third of the inactives were read at about 46 µM; Potency, µM (series often up to 37.8 µM), for the others: at the highest dose activity change, negative = inhibition, most hits filed as inhibitors; 1.8% of 300,000 active; active = well fitted inhibition curve with a large enough effect; inconclusive = small, poorly fitted or top-dose-only effect, or effect the other way; inactive = flat fitted curve, though single readings scatter; tested in HEK293 cells; about a fifth of its hits are not listed in these tables; also: % is scaled to controls: 0 for no effect and ±100 for the full control effect; luciferase read-out
Lassa entry inh: inhibitors of Lassa virus binding or cell entry; Lassa virus pseudotype entry inhibition, cell reporter; control for the full effect not named in the record; Potency, µM (top dose mostly 37.9 µM), inactives show at the highest dose activity change, negative = inhibition, usual class: inhibitors; 1.2% of 300,000 active; active means well fitted inhibition curve with a large enough effect; inconclusive means small, poorly fitted or top-dose-only effect, or effect the other way; inactive means flat fitted curve, though single readings scatter; tested in HEK293 cells; also: % is scaled to controls: 0 for no effect and ±100 for the full control effect; nearly all actives have a fitted effect of over 50% in size; luciferase read-out
Cruzain Triton: inhibitors of Trypanosoma cruzi cruzain with detergent; Potency, µM, without a hit: max response, negative = inhibition, usual class: inhibitors; P25779; purified cruzain, Z-FR-AMC fluorescence, 0.01% Triton; AID 1478; 0.43% of 200,000 active;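 also: plate controls were neutral wells for no effect and buffer without enzyme for full effect; nearly all actives have a fitted effect of over 40% in size; top concentration of the series not given in the record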
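Purified cruzain (1.5 nM final) was preincubated with compounds for 15 min at room temperature in 100 mM sodium acetate pH 5.5, 5 mM DTT, 0.01% Triton X-100. Reaction started with 2 uM Z-FR-AMC; AMC fluorescence change over 60 s gave activity.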
StopGo reporter: lowers the luciferase signal of an FMDV 2A StopGo reporter; human cells with a luciferase reporter of 2A StopGo recoding; control for the full effect not named in the record; Potency, µM (highest dose often 57.9 µM), for the others: top-dose signal change, negative = less light; 1.2% of 410,000 active; active = well fitted falling curve with a large enough effect; inconclusive = small, poorly fitted or top-dose-only effect; inactive = no such curve, though single readings can be large or run the other way; tested in HEK293T cells; also: % is scaled to controls: 0 for no effect and ±100 for the full control effect; nearly all actives have a fitted effect of over 45% in size; luciferase light after 4 h
NS1 function inh: inhibitors of influenza NS1 protein function; Potency, µM (titrated, usually from 46.1 µM), for inactives: at the top dose activity, positive = more growth; S. cerevisiae slowed by influenza A NS1, growth recovery by OD600; AID 2326; 0.4% of 270,000 active; active means well fitted rising curve with a large enough effect; inconclusive means small, poorly fitted or top-dose-only effect; inactive means no such curve, though single readings can be large or run the other way; also: nearly all actives have a fitted effect of over 50% in size
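Growth recovery, yeast-based: influenza A NS1 expressed in S. cerevisiae causes slow growth, and suppressors are detected by OD600. The parent strain without NS1 is used as positive control.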
An asterisk follows results filed as active; ? = inconclusive; · = no result given; [ ] = dose if it differs, or a comment. Unless noted, calls follow the shape of the dose curve; as a rule, active = well fitted curve in the direction sought with a large enough effect; inconclusive = small, poorly fitted or top-dose-only effect, or another doubt; inactive = no such curve, though single readings can be large; an effect the other way counts as inactive or inconclusive. Potency is read from the fitted curve at half-maximal effect.

SMILES	Cruzain inh noDet	RE007 growth inh	SARS PLP yeast	Marburg entry inh	Lassa entry inh	Cruzain Triton	StopGo reporter	NS1 function inh
O=C(COC(=O)CCCNC(=O)c1ccc(Cl)cc1)NC1CC1	7.0%	7.3%	2.9%	28.8%	0.2%	-0.5%	0.6%	-2.0%
Fc1ccc(NC(=S)NC2CC3CCCC(C2)N3Cc2cccs2)cc1 (configuration not stated)	·	2.5%	0.6%	?	-1.2%	·	-9.0%	4.3%
CC(C)NC(=O)COC(=O)c1cc(Br)ccc1Cl	-12.8%	-12.7%	7.1%	-0.7%	6.8%	-2.2%	-7.6%	-1.3%
COc1ccc(C(=O)COC(=O)COc2cc(C)cc(C)c2)cc1	·	2.8%	-0.1%	12.0%	15.3%	·	-8.6%	4.7%
NS(=O)(=O)c1cccc(NC(=O)CCc2ccc(S(=O)(=O)N3CCOCC3)cc2)c1	·	0.9%	-3.9%	1.5%[46.1 µM]	13.9%	·	-2.9%	·
CC(C)(C)C1CCC(=NNS(=O)(=O)c2ccc(Br)cc2)CC1 (configuration not stated)	6.4%	-12.2%	-9.1%	4.8%	?	-6.8%	0.5%	-4.6%
CCN(CC)S(=O)(=O)c1cc([N+](=O)[O-])ccc1N=Nc1c(O)[nH]c2ccccc12	?	·	23.3%	4.0%	0.7%	-0.3%	-28.5%	13.3%
CCOc1ccc(C(=O)CCC(=O)NC(C)C(=O)OC)cc1 (configuration not stated)	·	4.6%	-2.0%	0.7%[46.1 µM]	-12.7%[46.1 µM]	·	10.0%	·
Cc1cnc[nH]1	-10.1%	-28.8%	-2.5%	·	·	1.5%	-16.3%	·
COc1ccc(OC)c(NC(=O)C23CC4CC(C2)CC(n2cnc(Br)n2)(C4)C3)c1	-9.3%	-7.8%	-2.3%	-29.7%	-14.8%	-0.8%	-21.1%	-9.6%

One compound at a time (already shown).
`COc1ccc(OC)c(NC(=O)C23CC4CC(C2)CC(n2cnc(Br)n2)(C4)C3)c1` is entered as Cruzain inh noDet: -9.3%; RE007 growth inh: -7.8%; SARS PLP yeast: -2.3%; Marburg entry inh: -29.7%; Lassa entry inh: -14.8%; Cruzain Triton: -0.8%; StopGo reporter: -21.1%; NS1 function inh: -9.6%
`O=C(COC(=O)CCCNC(=O)c1ccc(Cl)cc1)NC1CC1` is entered as Cruzain inh noDet: 7.0%; RE007 growth inh: 7.3%; SARS PLP yeast: 2.9%; Marburg entry inh: 28.8%; Lassa entry inh: 0.2%; Cruzain Triton: -0.5%; StopGo reporter: 0.6%; NS1 function inh: -2.0%

(next part)
SMILES	Cruzain inh noDet	RE007 growth inh	SARS PLP yeast	Marburg entry inh	Lassa entry inh	Cruzain Triton	StopGo reporter	NS1 function inh
COc1ccc(-n2nc3cc(C)c(NC(=O)c4ccc(C)cc4C)cc3n2)cc1Cl	2.8%	·	·	-3.3%[46.1 µM]	1.8%[46.1 µM]	1.3%	1.0%	·
O=C(NCCc1ccc(Cl)cc1)Nc1ccc(Cl)cc1	·	-8.1%	-2.0%	·	·	·	17.1%	-4.7%
O=C(Nc1ccc(N2CCN(C(=O)c3cccs3)CC2)c(Cl)c1)c1cccnc1	·	2.5%	-1.2%	?	?	·	-3.5%	·
COc1ccc2oc(-c3cccc(NC(=O)c4cc([N+](=O)[O-])ccc4N4CCOCC4)c3)nc2c1	3.3%	·	·	?	?	-4.6%	-12.2%	·
Cc1cc(NC(=O)c2c(-c3ccccc3Cl)noc2C)no1	-0.6%	-20.9%	1.8%	?	2.0%	2.3%	-2.3%	6.1%
CCc1ccc(S(=O)(=O)c2nnn3c2nc(NCc2ccccc2)c2cc(Cl)ccc23)cc1	?	·	·	3.8%[46.1 µM]	·	-3.9%	-0.5%	·
CCOc1nc(NCc2ccco2)nc(Nc2ccc(OC)cc2)n1	-15.3%	0.6%	-3.9%	1.9%	6.2%	-5.0%	8.1%	-12.4%
CC(C)CCn1c(/C=C/c2ccccc2)nc2ccccc21	-12.8%	·	·	?	25.9%[46.1 µM]	-22.1%	27.7%	·
CCC(C)c1ccccc1NC(=O)C(C)NCCN(C)C (configuration not stated)	·	-4.2%	-0.8%	·	·	·	-19.7%	0.7%
CN(C)c1ccc(C(=O)C(O)c2ccccc2)cc1 (configuration not stated)	-16.8%	5.1%	22.4%	14.5%	22.0%	-8.1%	3.8%	1.6%
CCOC(=O)N1CCN(C(=O)C2CC(=O)N(c3ccccc3)C2)CC1 (configuration not stated)	·	1.2%	0.2%	9.7%	18.4%	·	-25.4%	-9.0%
Cc1cc(C)nc(-n2ncc3c2CC(c2ccccc2)CC3=O)n1 (configuration not stated)	0.8%	7.4%	?	-3.6%[46.1 µM]	?	0.4%	-25.0%	7.9%
CSc1cccc(NC(=O)C2CCN(S(=O)(=O)c3ccc4[nH]c5c(c4c3)CCCCC5)CC2)c1	12.6µM*	·	·	·	?	2.7%	-13.0%	·
Cc1cnc(C(=O)OCC(=O)N(C)CC(=O)Nc2ccccc2Cl)cn1	·	-7.5%	-6.9%	-8.1%	1.1%	·	-5.5%	·
CCCc1[nH]nc2c1C(c1ccncc1)C(C#N)=C(N)O2 (configuration not stated)	-0.4%	6.3%	19.0%	0.0%	3.1%	0.7%	-2.8%	7.3%
Cc1ccc(C(=O)OCC(=O)N(CCc2ccccc2)Cc2ccccc2)cc1S(=O)(=O)N1CCOCC1	·	-16.4%	-3.7%	-22.0%	?	·	-23.1%	·
Cc1ccc(CNC(=O)C2CCN(C(=O)N3CC(C)Oc4ccc(Cl)cc43)CC2)cc1 (configuration not stated)	-29.2%	·	·	·	25.5%[46.1 µM]	-3.2%	-27.4%	·
Cc1ccccc1NC(=O)Cn1c(=O)oc2cc(Br)ccc21	15.5%	·	·	·	?	-2.9%	-24.2%	·
Cc1ccc(C2=NN(CC(=O)NCc3ccco3)C(=O)CC2)cc1	-3.2%	7.2%	2.0%	-1.7%	0.8%	-2.8%	-10.5%	1.5%
COCCN1C(=O)C(=O)/C(=C(/O)c2cccc(OC)c2)C1c1ccco1 (configuration not stated)	-10.5%	22.1%	0.5%	21.0%	-1.2%	-4.8%	20.1%	8.5%
CCCNC(=O)CCc1cc(C(C)(C)C)c(O)c(C(C)(C)C)c1	2.3%	2.8%	-3.5%	·	·	-1.8%	-14.5%	3.1%
CCCCOC(=O)C1=C(C)NC(=O)NC1c1ccccc1 (configuration not stated)	·	6.6%	-2.5%	·	·	·	-24.4%	5.1%
Cc1nnc(SCCn2c(Br)nc3c2c(=O)n(C)c(=O)n3C)s1	-12.6%	-18.5%	0.0%	5.2%	6.3%	3.2%	-14.5%	9.8%
Cc1ccc(C)c(N2CCN(c3ccc4cc(S(=O)(=O)N5CCC(C)CC5)ccc4n3)CC2)c1	-2.7%	·	·	·	15.5%[46.1 µM]	3.5%	-19.6%	·
O=C(Nc1cc2c(cc1C(=O)c1ccccc1Br)OCCO2)c1ccccc1	1.1%	·	·	·	12.3%[46.1 µM]	0.2%	-9.3%	·
COC(=O)[C@@]1(Cc2ccc(F)cc2)[C@H]2c3cc(C(=O)N(C)C)n(CC4CC4)c3C[C@H]2CN1C(=O)c1ccccc1	?	-4.1%	·	·	·	-0.7%	-18.5%	·
CCCC(C(=O)NC1CCCC1)N(CC1CCCO1)C(=O)CNS(=O)(=O)c1ccc(F)cc1 (configuration not stated)	·	-19.2%	-0.2%	0.1%[46.1 µM]	0.7%	·	-7.0%	-1.1%
Cc1ccc2oc(C(=O)Nc3c(C(=O)Nc4ccccc4)oc4ccccc34)cc(=O)c2c1	-9.8%	·	·	5.7%[46.1 µM]	-6.7%[46.1 µM]	-0.2%	?	·
CC(C(=O)Nc1ccc2c(c1)OCCO2)N(c1ccccc1)S(C)(=O)=O (configuration not stated)	·	11.2%	-2.3%	·	·	·	-4.4%	-6.9%
COc1ccc(N(CC(=O)Nc2nccs2)S(=O)(=O)c2c(C)nn(C)c2C)cc1	-15.0%	10.9%	?	·	·	0.9%	-2.4%	-1.2%

Quoted from the listing:
`Cc1nnc(SCCn2c(Br)nc3c2c(=O)n(C)c(=O)n3C)s1` @ Marburg entry inh: 5.2%
`COc1ccc(N(CC(=O)Nc2nccs2)S(=O)(=O)c2c(C)nn(C)c2C)cc1` @ Cruzain inh noDet: -15.0%
`COC(=O)[C@@]1(Cc2ccc(F)cc2)[C@H]2c3cc(C(=O)N(C)C)n(CC4CC4)c3C[C@H]2CN1C(=O)c1ccccc1` @ StopGo reporter: -18.5%

Next part.
SMILES	Cruzain inh noDet	RE007 growth inh	SARS PLP yeast	Marburg entry inh	Lassa entry inh	Cruzain Triton	StopGo reporter	NS1 function inh
Clc1ccc(/C=N/c2c(-c3ccc(Cl)cc3)nc3n2CCS3)cc1	?	7.2%	-1.4%	-4.5%	6.0%	-10.5%	3.5%	?
Brc1cccc(CNc2nc3ccccc3n2CCN2CCCCC2)c1	·	19.2%	0.3%	·	·	·	-28.8%	-1.3%
CCOc1cccc2cc(S(=O)(=O)c3ccccc3F)c(=O)oc12	2.6%	·	·	1.9%[46.1 µM]	2.0%[46.1 µM]	-19.4%	-10.0%	·
O=C(c1cc(-c2ccc(Cl)cc2)n(-c2cc(Cl)ccc2Cl)n1)N1CCOCC1	-0.7%	5.7%	2.4%	13.1%	-5.0%	-2.0%	-12.0%	5.6%
CCCNCC1COc2ccccc2O1 (configuration not stated)	-8.7%	15.4%	1.7%	12.2%	-4.8%	6.7%	21.4%	7.2%
CN=c1sc2c(n1C)C(=O)c1ccccc1C2=O	·	10µM*	·	?	?	·	?	·
CN=C1NN=C(c2cc(C)n(-c3c(C)n(C)n(-c4ccccc4)c3=O)c2C)CS1	10.8%	-5.6%	8.3%	?	-14.7%[46.1 µM]	-4.7%	-10.2%	13.6%
COc1ccc(CNCCSc2nnnn2C)c(OC)c1OC	·	-4.3%	0.2%	?	17.5%	·	-14.1%	2.3%
CC1(C)CC(CC(=O)O)(c2ccc(F)cc2)CCO1 (configuration not stated)	10.0%	3.6%	3.3%	·	·	-0.4%	7.2%	-3.9%
O=C(CN1C(=O)C2CCCCC2C1=O)N1CCN(c2ncccn2)CC1 (configuration not stated)	·	6.3%	0.1%	11.0%[46.1 µM]	23.5%	·	4.4%	0.2%

Rows were taken by chance, and some 4.5% of all compounds hit somewhere here.
